Vaccinia stage: blocks a specific stage of Vaccinia orthopoxvirus infection; 89,000 tested, 0.01% active; Vaccinia-infected cells, mCherry/Venus stage reporter fluorescence; stronger effect = lower value; some inactives read as strong as hits; activity change (mCherry), % (no concentration beside the values); AID 1053133;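 active = mCherry past -33% and 40 or more points under the early reporter, replicates agreeing; inconclusive = past -33% without that gap or agreement; tested in A549 cells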;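 also: scaled between vehicle wells and reference inhibitor wells; 23 nL library stock went into each well; one replicate is shown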
Vaccinia stage Venus: further read-out of Vaccinia stage, marked with its call; activity change (Venus), %; measured here: Venus reporter, other viral stage;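 negative = less Venus signal; first of two replicates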
* = called active by the depositor; ? = inconclusive; . = no result given; & = joins results of further samples. A portion of the library; rates above refer to the full screens.

Structure | Vaccinia stage | Vaccinia stage Venus
CCCC#Cc1cnc2c(c1)C(=O)N([C@@H](C)CO)C[C@@H](C)[C@H](CN(C)S(=O)(=O)c1cccc(OC)c1)O2 | -17 | -14
CO[C@H]1CN(C)C(=O)c2ccc(NC(=O)c3ccccc3F)cc2OC[C@H](C)N(CC2CCOCC2)C[C@@H]1C | 0 | 1
CC(C)NC(=O)N(C)C[C@@H]1Oc2c(NC(=O)c3cnccn3)cccc2C(=O)N([C@@H](C)CO)C[C@@H]1C | -1 | -10
C[C@H](CO)N1C[C@H](C)[C@@H](CN(C)S(=O)(=O)c2ccc(F)cc2)Oc2ccc(NS(=O)(=O)c3cccs3)cc2CC1=O | 13 | 2
C[C@@H]1CN([C@@H](C)CO)C(=O)c2cc(NC(=O)NC3CCCCC3)ccc2O[C@@H]1CN(C)C(=O)Nc1ccc(C(F)(F)F)cc1 | -9 | -4
C[C@H](CO)N1C[C@H](C)[C@H](CN(C)Cc2ccc(C(=O)O)cc2)Oc2ccc(NC(=O)Nc3ccc4c(c3)OCO4)cc2C1=O | 5 | 0
CC(C)CC#Cc1ccc2c(c1)O[C@@H](CN(C)Cc1ccccc1F)[C@@H](C)CN([C@H](C)CO)S2(=O)=O | -18 | -10
CC=Cc1ccc2n(c1=O)C[C@@H]1[C@@H](CO)[C@H](C(=O)N3CCCCC3)N(Cc3ccccc3OC)[C@H]21 (mixture of isomers) | -3 | 3
O=C(C[C@H]1C=C[C@H](NC(=O)C2CCC2)[C@H](CO)O1)Nc1nccs1 | -3 | -3
COc1ccc(S(=O)(=O)Nc2ccc3c(c2)C(=O)N([C@H](C)CO)C[C@H](C)[C@H](CN(C)C(=O)Nc2ccc(C(F)(F)F)cc2)O3)cc1 | -3 | -2
O=C(C1CC1)N1CC(=O)N2[C@H](C1)[C@H](c1ccc(C#CC3CCCC3)cc1)[C@@H]2CO | ? | .
C[C@@H]1CCCCO[C@H](CN(C)C(=O)CCCN(C)C)[C@H](C)CN([C@H](C)CO)C(=O)c2cc(NC(=O)CCC(F)(F)F)ccc2O1 | 9 | -5
C[C@@H]1CN([C@@H](C)CO)C(=O)CCCn2cc(nn2)CO[C@@H]1CN(C)C(=O)Nc1ccc(N2CCN(C)CC2)cc1 | 16 | 9
COc1cccc(C#Cc2ccc([C@H]3[C@H]4CN(C(C)=O)CC(=O)N4[C@H]3CO)cc2)c1 | ? | .
C[C@H]1CN([C@@H](C)CO)C(=O)Cc2cc(NC(=O)Nc3cccc4ccccc34)ccc2O[C@@H]1CN(C)S(=O)(=O)c1ccccc1 | 15 | 8
COCC(=O)N1[C@H](C#N)[C@H](c2ccccc2-c2cccc(F)c2)[C@@H]1CO | 9 | 10
COc1ccc(NC(=O)N(C)C[C@H]2OCc3ccccc3-c3c(n(C)c4ccccc34)C(=O)N([C@H](C)CO)C[C@H]2C)cc1 | -20 | -15
O=C(C1CCOCC1)N1CC(=O)N2[C@H](C1)[C@@H](c1ccc(/C=C/c3ccccc3)cc1)[C@@H]2CO | -25 | -9
CN(C)C(=O)C[C@H]1C[C@H]2c3cc(NC(=O)c4ccc5c(c4)OCO5)ccc3O[C@H]2[C@H](CO)O1 | 5 | 2
Cc1ccc(S(=O)(=O)Nc2ccc3c(c2)C(=O)N([C@H](C)CO)C[C@H](C)[C@@H](CN(C)Cc2ccc4c(c2)OCO4)O3)cc1 | -4 | -2
COCC(=O)Nc1ccc2c(c1)[C@H]1C[C@H](CC(=O)NCc3ccccn3)O[C@H](CO)[C@H]1O2 | 8 | -4
O=C(C[C@H]1CC[C@H]2[C@@H](COC[C@H](O)CN2C(=O)Nc2ccc(F)cc2)O1)NC1CCC1 | 12 | 0
CC=Cc1ccc2n(c1=O)C[C@H]1[C@H](CO)[C@@H](C(=O)NCC3CC3)[C@@H]2N1Cc1ccncc1 (mixture of isomers) | 26 | 17
CN(C)C(=O)c1cccc(-c2ccc(C3[C@@H]4CN(C(=O)Nc5ccccc5F)C[C@H]3N4)cc2)c1 (stereo partly drawn) | 8&-2 | -4&-14
CC(C)C#Cc1ccc2c(c1)O[C@@H](CN(C)C(=O)c1cnccn1)[C@@H](C)CN([C@H](C)CO)S2(=O)=O | -1 | -2
COc1ccc(-c2ccc([C@H]3[C@H](CO)N[C@@H]3C#N)cc2)cc1 | 22 | 11
CCCNC(=O)Nc1ccc2c(c1)C(=O)N(C)C[C@H](OC)[C@H](C)CN(Cc1cccnc1)[C@H](C)CO2 | 7 | 8
C[C@@H]1CN([C@@H](C)CO)C(=O)c2cc(NS(=O)(=O)c3ccccc3)ccc2O[C@@H]1CN(C)C | -8 | -21
COc1ccc([Si](C)(C)[C@@H]2[C@@H](CCn3cc([C@H](O)c4ccccc4)nn3)O[C@]3(C(=O)N(Cc4ccc(N5CCC5=O)cc4)c4ccccc43)[C@H]2C)cc1 | -15 | -17
CN(C)C(=O)c1ccc(-c2ccc([C@H]3[C@H](C#N)N(C(=O)C4CCC4)[C@H]3CO)cc2)cc1 | -10 | -7

4 compounds out of the list, arranged by number of heavy atoms, high to low.
Structure | Vaccinia stage | Vaccinia stage Venus
Cc1ccc(S(=O)(=O)Nc2ccc3c(c2)C(=O)N([C@H](C)CO)C[C@H](C)[C@@H](CN(C)Cc2ccc4c(c2)OCO4)O3)cc1 | -4 | -2
CN(C)C(=O)c1cccc(-c2ccc(C3[C@@H]4CN(C(=O)Nc5ccccc5F)C[C@H]3N4)cc2)c1 (stereo partly drawn) | 8&-2 | -4&-14
O=C(C[C@H]1CC[C@H]2[C@@H](COC[C@H](O)CN2C(=O)Nc2ccc(F)cc2)O1)NC1CCC1 | 12 | 0
COc1ccc(-c2ccc([C@H]3[C@H](CO)N[C@@H]3C#N)cc2)cc1 | 22 | 11

Next section.
Structure | Vaccinia stage | Vaccinia stage Venus
COC(=O)C[C@@H]1CC[C@H]2[C@@H](COc3ccc(NC(=O)c4cccc(Cl)c4)cc3C(=O)N2C)O1 | 2 | -2
C[C@H](CO)N1C[C@H](C)[C@@H](CN(C)C(=O)Nc2ccccc2)Oc2ncc(C#CC3CCCC3)cc2C1=O | 0 | -6
Cc1ccc(S(=O)(=O)N(C)C[C@@H]2Oc3c(NC(=O)c4nc5ccccc5s4)cccc3C(=O)N([C@@H](C)CO)C[C@@H]2C)cc1 | 3 | -5
Cc1ccc(F)cc1S(=O)(=O)N[C@@H]1CCN(Cc2ccc(OC(C)C)cc2)C1 | -19 | -11
C[C@H]1CN([C@@H](C)CO)C(=O)c2cc(C#CCN(C)C)cnc2O[C@H]1CN(C)C(=O)c1ccc(F)cc1 | 18 | 14
C[C@H]1CN([C@@H](C)CO)C(=O)c2cc(C#CC3CC3)cnc2O[C@H]1CN(C)S(C)(=O)=O | 4 | -2
C[C@@H]1CN([C@H](C)CO)S(=O)(=O)c2ccc(Br)cc2O[C@H]1CN(C)Cc1cncnc1 | 17 | 2
COc1cccc(-c2cnc3c(c2)C(=O)N([C@@H](C)CO)C[C@H](C)[C@@H](CN(C)Cc2ccc(C(=O)O)cc2)O3)c1 | 8 | 5
CN1CCN(C(=O)C[C@@H]2CC[C@H](NC(=O)Nc3ccccc3F)[C@@H](CO)O2)CC1 | -4 | 11
COc1cccc(NC(=O)C[C@@H]2CC[C@H]3[C@H](COc4ccc(NC(=O)C5CCCCC5)cc4C(=O)N3C)O2)c1 | -10 | 2
Cc1noc(C)c1C(=O)N(C)C[C@H]1OCc2ccccc2-c2ccccc2C(=O)N([C@@H](C)CO)C[C@@H]1C | 24 | 10
CC(C)NC(=O)Nc1ccc2c(c1)C(=O)N([C@@H](C)CO)C[C@@H](C)[C@@H](CN(C)C(=O)Nc1ccc3c(c1)OCO3)OCCCC[C@@H](C)O2 | 27 | 22
CCC(=O)N(C)C[C@H]1Oc2cc(C#C[C@@H](C)O)ccc2S(=O)(=O)N([C@H](C)CO)C[C@H]1C | 26 | 20
Cc1ccc(S(=O)(=O)N(C)C[C@H]2OCCCC[C@H](C)Oc3ccc(NC(=O)Nc4cccc5ccccc45)cc3C(=O)N([C@@H](C)CO)C[C@@H]2C)cc1 | 6 | 4
CCC(=O)N1CC(=O)N2[C@H](C1)[C@@H](c1ccc(C#Cc3cccc(F)c3)cc1)[C@@H]2CO | -32 | -32

Additional compounds
Results follow in this order: Vaccinia stage	Vaccinia stage Venus
> COc1ccc(NC(=O)Nc2ccc3c(c2)CC(=O)N([C@@H](C)CO)C[C@H](C)[C@@H](CN(C)Cc2ccc(Oc4ccccc4)cc2)O3)cc1
  -31	-26
> Cc1noc(C)c1S(=O)(=O)N(C)C[C@@H]1Oc2c(NS(=O)(=O)c3cccs3)cccc2C(=O)N([C@H](C)CO)C[C@@H]1C
  1	0
> O=C(NCC[C@@H]1CC[C@H](NS(=O)(=O)c2ccc(Oc3ccccc3)cc2)[C@@H](CO)O1)C1CC1
  -13	4
> C[C@H]1CN([C@@H](C)CO)C(=O)c2cccc(NC(=O)c3ccc(-c4nccs4)cc3)c2O[C@@H]1CN(C)C(=O)NC1CCCCC1
  -5	-2
> C[C@@H]1CN([C@H](C)CO)C(=O)c2cc(NC(=O)CCC(F)(F)F)ccc2O[C@@H]1CN(C)Cc1ccc(C(=O)Nc2ccccc2N)cc1
  -10	-8
> O=C(C[C@H]1C[C@@H]2c3cc(NS(=O)(=O)c4ccc(F)cc4)ccc3O[C@@H]2[C@H](CO)O1)N1CCCCC1
  -4	-3
> C[C@H]1CN([C@@H](C)CO)C(=O)c2cccc(NC(=O)Nc3cccc4ccccc34)c2O[C@H]1CN(C)CC1CC1
  -8	-12
> CO[C@H]1CN(C)C(=O)c2cc(NC(=O)NC3CCCCC3)ccc2OC[C@@H](C)N(CC2CCOCC2)C[C@H]1C
  -3	-8
> Cc1noc(C)c1NC(=O)N(C)C[C@H]1Oc2c(NS(C)(=O)=O)cccc2C(=O)N([C@H](C)CO)C[C@H]1C
  64	278
> CC(C)NC(=O)N(C)C[C@@H]1OCCCC[C@@H](C)Oc2ccc(NC(=O)c3ccncc3)cc2C(=O)N([C@@H](C)CO)C[C@H]1C
  4	6
> C[C@H](CO)N1C[C@H](C)[C@H](CN(C)C(=O)NC2CCCCC2)Oc2ccc(NC(=O)CCCN(C)C)cc2C1=O
  0	5
> CN(C)C(=O)c1cccc(-c2ccc(C3[C@H]4CNC[C@@H]3N4CC3CCCCC3)cc2)c1 (stereo partly drawn)
  6&1	3&1
> N#Cc1ccc(-c2ccc3c(c2)[C@@H]2[C@@H](CCN2S(=O)(=O)c2cccc(F)c2)[C@@H](CO)N3)cc1
  ?	.
> COc1ccc(CN(C)C[C@@H]2Oc3ccc(NC(=O)Nc4ccc5c(c4)OCO5)cc3C(=O)N([C@@H](C)CO)C[C@H]2C)cc1
  -29	-20
> CN(C)C(=O)C[C@@H]1CC[C@H](NC(=O)NC2CCCC2)[C@@H](CO)O1
  -3	-1
> O=C(C[C@@H]1C[C@@H]2c3cc(NC(=O)C4CCC4)ccc3O[C@@H]2[C@H](CO)O1)NCC1CC1
  5	-2
> CC(C)CC#Cc1ccc([C@@H]2[C@@H](CO)N3CCCCN(S(=O)(=O)c4ccc(F)cc4)C[C@@H]23)cc1
  -6	-23
> C[C@@H]1CN([C@H](C)CO)C(=O)CCCn2cc(nn2)CO[C@H]1CN(C)S(=O)(=O)c1cccs1
  4	1
> Cc1ccc(S(=O)(=O)N(C)C[C@H]2Oc3c(NC(=O)C4CC4)cccc3C(=O)N([C@@H](C)CO)C[C@H]2C)cc1
  -12	-3
> CCCN(C)C[C@H]1OCCCC[C@@H](C)Oc2ccc(NS(=O)(=O)c3cn(C)cn3)cc2C(=O)N([C@@H](C)CO)C[C@@H]1C
  4	6
> Cc1noc(C)c1NC(=O)N(C)C[C@H]1OCCCC[C@H](C)Oc2ccc(NC(=O)C3CCCCC3)cc2C(=O)N([C@H](C)CO)C[C@@H]1C
  22	9
> COc1ccc(S(=O)(=O)N(C)C[C@@H]2Oc3ccc(NC(=O)Nc4c(C)noc4C)cc3CC(=O)N([C@@H](C)CO)C[C@H]2C)cc1
  -6	2
> CCCNC(=O)Nc1ccc2c(c1)C(=O)N(C)C[C@H](OC)[C@H](C)CN(C(=O)c1ccccc1F)[C@H](C)CO2
  7	10
> C[C@H](CO)N1C[C@H](C)[C@H](CN(C)CC2CC2)Oc2c(NC(=O)C3CC3)cccc2C1=O
  12	7
> C[C@@H]1CCCCO[C@H](CN(C)S(=O)(=O)c2ccc(Cl)cc2)[C@H](C)CN([C@H](C)CO)C(=O)c2cc(NC(=O)CCC(F)(F)F)ccc2O1
  ?	.
> COc1ccc(S(=O)(=O)N(C)C[C@@H]2OCCCC[C@@H](C)Oc3ccc(NC(=O)Nc4c(C)noc4C)cc3C(=O)N([C@@H](C)CO)C[C@@H]2C)cc1
  13	7
> C[C@H]1CN([C@@H](C)CO)C(=O)c2cc(C3=CCCCC3)cnc2O[C@H]1CN(C)Cc1cccnc1
  8	6
> C[C@@H]1CN([C@@H](C)CO)C(=O)Cc2cc(NC(=O)Cn3cnnn3)ccc2O[C@@H]1CN(C)Cc1ccccc1
  8	4
> CO[C@@H]1CN(C)C(=O)c2cc(NS(=O)(=O)c3ccc(C)cc3)ccc2OC[C@H](C)NC[C@@H]1C
  11	11
> Cc1cccc(-c2ccc(C3[C@@H]4CN(C(=O)C5CCCC5)C[C@H]3N4)cc2)c1 (stereo partly drawn)
  ?	-13
> O=C(C[C@H]1CC[C@H]2[C@@H](COC[C@@H](O)CN2C(=O)Nc2cccc(Cl)c2)O1)N1CCCCC1
  -14	-9
> COc1ccc(S(=O)(=O)N(C)C[C@@H]2Oc3ccc(NC(=O)CCCCCC(=O)Nc4ccccc4N)cc3CC(=O)N([C@H](C)CO)C[C@H]2C)cc1
  17	7

Filtered by structure: those above with a COOH group.
Results follow in this order: Vaccinia stage	Vaccinia stage Venus
> C[C@H](CO)N1C[C@H](C)[C@H](CN(C)Cc2ccc(C(=O)O)cc2)Oc2ccc(NC(=O)Nc3ccc4c(c3)OCO4)cc2C1=O
  5	0
> COc1cccc(-c2cnc3c(c2)C(=O)N([C@@H](C)CO)C[C@H](C)[C@@H](CN(C)Cc2ccc(C(=O)O)cc2)O3)c1
  8	5
